Six1-Eya2 blk = blocks human Six1 binding to Eya2; Q15475+O00167; AlphaScreen GST-Six1/His-Eya2 binding, biochemical; hits give low values; control for the full effect not named in the record; activity change, % (test concentration not listed); actives 0.56% (n = 360,000); AID 651725; in the data active = activity change below about -65%; inconclusive = about -30% to -65%; inactive = above about -30%; note: % is set by controls: 0 for no effect and ±100 for the full control effect; compound concentration not given in the record
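Six1/Eya2 binding was read as AlphaScreen signal after compounds were pinned into GST-Six1 plus His-tagged Eya2 (5X stock 250/500 nM) in pH 8.0 Tris/NaCl/TCEP buffer, beads added, then incubated 1 h, 37 C, dark.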
TRPML1 ag = human mucolipin-1 channel agonism; Q9GZU1; TRPML1-expressing cells, Ca2+ dye fluorescence, FDSS; host cell line not named in the record; reference of the full effect not given here; actives 0.12% (n = 410,000); activation, % (concentration not given with the values); in the data active = activation above about 50%; inconclusive = about 30% to 50%; inactive = below about 30%; note: 0% is about no effect; the text of the record puts the active cut at 80%
Target sequence (Q9GZU1 whole entry, looked up): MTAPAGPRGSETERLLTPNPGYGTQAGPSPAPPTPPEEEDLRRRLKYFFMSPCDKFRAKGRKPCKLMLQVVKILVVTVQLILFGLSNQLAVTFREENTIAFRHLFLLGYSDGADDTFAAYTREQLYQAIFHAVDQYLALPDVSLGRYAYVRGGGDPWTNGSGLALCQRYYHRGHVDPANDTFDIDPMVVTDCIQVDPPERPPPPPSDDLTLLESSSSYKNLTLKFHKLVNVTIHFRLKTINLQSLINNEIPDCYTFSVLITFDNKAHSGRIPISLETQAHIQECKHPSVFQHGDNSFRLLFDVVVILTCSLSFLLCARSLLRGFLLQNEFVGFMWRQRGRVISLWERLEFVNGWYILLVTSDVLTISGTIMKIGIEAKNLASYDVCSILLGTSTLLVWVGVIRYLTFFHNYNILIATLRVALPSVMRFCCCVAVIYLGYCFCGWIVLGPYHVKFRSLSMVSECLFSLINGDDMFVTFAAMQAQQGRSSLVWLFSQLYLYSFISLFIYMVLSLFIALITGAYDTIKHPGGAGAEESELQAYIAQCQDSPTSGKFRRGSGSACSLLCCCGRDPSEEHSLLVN
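TRPML1-DL cells, Tet-induced overnight (~16 h, 37 degrees C), loaded 45-90 min at room temperature with Ca8 no-wash calcium dye plus quencher. FDSS fluorescence: 10 s baseline, compound pin-transfer, 110 s agonist read, then EC80 54-4 (4uM final) and 110 s antagonist read.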
PINK1 expr mod = PINK1 expression modulation; PINK1 immunofluorescence, high-content cytometry, 24 h; Potency, µM (doses to about 76.6 µM), for inactives: at the highest dose activation (PINK1 increase), hits mostly activators; actives 0.2% (n = 410,000); AID 624263; active = well fitted activation curve with a large enough effect; inconclusive = small, poorly fitted or top-dose-only effect; inactive = flat fitted curve, though single readings scatter; cell line not stated here;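 note: potency is the fitted concentration of half-maximal effect; % of control where 0% means no effect; nearly all actives have a fitted effect of over 65% in size; a mitochondrial uncoupler was the plate control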
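Measures PINK1 amount and localization on or inside mitochondria by immunofluorescence. Stable cells get compounds at 5 concentrations for 24 hours before fixation and staining; CCCP controls included.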
D2 PAM = human D2 receptor positive allosteric modulation; P14416; DiscoveRx D2 beta-arrestin cells, luminescence, 90 min; 100% = 57 uM dopamine signal; potentiation, % (no concentration beside the values); actives 0.23% (n = 360,000); AID 624464; active = potentiation of 50% or more; inconclusive = 30% to 50%; inactive = 30% or less;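 note: compound concentration not given in the record; tested on top of an EC20 dose of dopamine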
Target sequence (P14416 whole entry, looked up): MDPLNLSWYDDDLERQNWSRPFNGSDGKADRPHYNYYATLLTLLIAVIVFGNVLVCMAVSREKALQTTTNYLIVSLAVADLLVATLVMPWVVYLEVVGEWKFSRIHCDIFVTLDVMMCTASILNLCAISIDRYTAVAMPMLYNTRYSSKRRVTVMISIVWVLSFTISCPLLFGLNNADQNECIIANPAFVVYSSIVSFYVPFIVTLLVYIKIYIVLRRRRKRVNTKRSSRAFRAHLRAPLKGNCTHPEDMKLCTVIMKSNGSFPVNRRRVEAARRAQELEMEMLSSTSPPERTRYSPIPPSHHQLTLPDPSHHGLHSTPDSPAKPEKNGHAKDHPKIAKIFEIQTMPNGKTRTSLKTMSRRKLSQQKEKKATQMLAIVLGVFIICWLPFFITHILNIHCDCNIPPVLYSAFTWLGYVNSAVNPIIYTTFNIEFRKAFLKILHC
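PathHunter D2 cells, attached overnight at 37 deg C, received compound in DMSO plus dopamine at EC20 (50 nM final) for 90 min at 37 deg C. Beta-arrestin recruitment was read as luminescence after 1 h with detection reagent at ambient temperature.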
TRPML1 inh = human mucolipin-1 channel inhibition | Q9GZU1 | TRPML1-inducible cells, Ca2+ dye fluorescence, FDSS; hits give low values; inhibition of EC80 agonist-evoked calcium signal | activity change, negative = inhibition, % (concentration not given with the values) | actives 0.02% (n = 390,000); in the data active means activity change below about -50%; inconclusive means about -30% to -50%; inactive means above about -30%;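 note: stimulus is agonist 54-4 at its EC80 concentration; % is set by controls: 0 for no effect and ±100 for the full control effect; compound concentration not given in the record; the text of the record puts the active cut at -80%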
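Tet-induced TRPML1-DL cells loaded with Ca8 no-wash calcium dye were read kinetically on FDSS. Compound addition was followed by EC80 agonist 54-4 (4 uM final); inhibition was read over 110 s.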
D2 ag = human D2 receptor agonism in beta-arrestin assay; P14416; DiscoveRx PathHunter D2 beta-arrestin, luminescence, 90 min; 100% = 57 uM dopamine signal; activation, % (test concentration not listed); actives 0.084% (n = 360,000); in the data active = activation above about 40%; inconclusive = about 15% to 40%; inactive = below about 15%; note: compound concentration not given in the record; the text of the record calls up to 30% inactive
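DiscoveRx PathHunter D2 beta-arrestin cells (2,100/well) attached overnight, then compound-stimulated 90 min at 37 C in HBSS/10 mM HEPES/0.1% Tween-20 buffer; beta-galactosidase complementation read by luminescence after 1 h at ambient temperature. Dopamine 57 uM final (EC100) as control.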
Numbers without * were called inactive; u = inconclusive; x = no result given; & = joins results of further samples; [ ] = dose if it differs, or a comment. The order is random; any-hit rate near 1%.

molecule	Six1-Eya2 blk	TRPML1 ag	PINK1 expr mod	D2 PAM	TRPML1 inh	D2 ag
CC(C)n1ncc2c(C(=O)NCCc3ccc(S(N)(=O)=O)cc3)cc(C3CC3)nc21	3.2	1.7	-0.8%	-28.8	-8.4	-2.8
O=C(COC(=O)/C=C/c1ccc(Cl)cc1)NC1CC1	-0.6	-0.2	-0.6%	-1.4	22.6	5.1
Cc1cc(C)n2nc(S(=O)(=O)NC(C)(C)C)nc2n1	0.5	-0.9	1.0%	-5.1	-2.3	-4.0
COc1ccc(C2C3CCCCC3(O)CCN2C(=O)c2cccs2)cc1 (stereo unspecified)	0.4	0.2	-1.4%	-23.5	11.9	-2.0
CN(CCCN1CCOCC1)Cc1nc(-c2ccccc2)no1	0.2	0.0	1.1%	-2.0	-11.1	-2.8
Cc1cc(-c2ccc(C)c(S(=O)(=O)N3CCC(C)CC3)c2)on1	x	3.3	-1.3%	x	62.2	x
COCCCNC(=O)c1ccc(N(C)S(C)(=O)=O)cc1	2.1	-0.2	-1.1%[38.3 µM]	-7.3	-2.0	-1.4
Cc1cccc([C@H]2[C@@H]3C=CCC[C@@H]3C(=O)N2Cc2ccccc2)c1	3.8	-1.0	10.7%	-0.1	3.1	-2.1
CC(=O)Nc1ccc(NC(=O)CCn2nnc3ccccc32)cc1	4.4	1.3	-0.6%	-2.9	-5.7	-2.4
O=C(N/N=C/c1cc2ccccc2nc1Cl)/C(=C/c1cccs1)NC(=O)c1ccccc1	u	0.4	-4.2%	-10.4	-4.9	1.8
COc1ccccc1C1CCCN1Cc1nc(-c2ccc(C)s2)oc1C (stereo unspecified)	-6.3	-0.2	1.3%	-6.4	17.8	-2.1
CC1CCN(C(=O)CSc2nnc(-c3cccnc3)o2)CC1	30.0	0.5	-1.2%	-2.2	1.8	-3.0
Cc1ccc(-n2nc3c(c2NC(=O)CC(C)C)CS(=O)C3)cc1 (stereo unspecified)	-1.1	-0.5	-0.5%	-7.7	9.8	-5.3
CCOC(CCn1c(SCc2cccc([N+](=O)[O-])c2)nc2ccccc2c1=O)OCC	19.1	3.5	4.6%	-5.6	39.9	-3.6
Cc1ccc(NC(=O)c2ccc(-c3ccccc3)s2)cc1	x	-0.1	-0.1%	x	-8.5	x
Cc1c(OCc2nn[nH]n2)ccc2c3c(c(=O)oc12)CCC(C)C3 (stereo unspecified)	-9.1	0.0	2.1%	1.3	-6.7	-4.6
CCN(CC)c1ccc(N2C(=O)/C(=C\c3cccs3)SC2=S)cc1	-16.9	0.4	11.1%	-22.0	-5.5	-3.3
COc1ccc(CCN(C)C(=O)c2c(C)nn(CC(C)C)c2Cl)cc1OC	-1.4	-0.3	1.6%	15.6	11.1	2.0
O=c1c2ccccc2ncn1CCOCCOc1ccc([N+](=O)[O-])cc1	4.5	1.0	-0.1%	-40.8	4.6	-2.5
CCS(=O)(=O)c1nc(S(=O)(=O)c2ccc(Cl)cc2)c(NCCCN2CCCC2=O)s1	6.5	0.5	-0.1%	-4.3	-14.1	-0.8

Random excerpt: 5 compounds from above.
molecule	Six1-Eya2 blk	TRPML1 ag	PINK1 expr mod	D2 PAM	TRPML1 inh	D2 ag
Cc1ccc(NC(=O)c2ccc(-c3ccccc3)s2)cc1	x	-0.1	-0.1%	x	-8.5	x
O=c1c2ccccc2ncn1CCOCCOc1ccc([N+](=O)[O-])cc1	4.5	1.0	-0.1%	-40.8	4.6	-2.5
CC(=O)Nc1ccc(NC(=O)CCn2nnc3ccccc32)cc1	4.4	1.3	-0.6%	-2.9	-5.7	-2.4
Cc1ccc(-n2nc3c(c2NC(=O)CC(C)C)CS(=O)C3)cc1 (stereo unspecified)	-1.1	-0.5	-0.5%	-7.7	9.8	-5.3
Cc1cc(C)n2nc(S(=O)(=O)NC(C)(C)C)nc2n1	0.5	-0.9	1.0%	-5.1	-2.3	-4.0

The list continues:
molecule	Six1-Eya2 blk	TRPML1 ag	PINK1 expr mod	D2 PAM	TRPML1 inh	D2 ag
Nc1nonc1-n1nnc(C(=O)N/N=C/c2cccc(Cl)c2)c1CSc1ccccc1	27.7	0.5	13.7%	-8.4	-11.6	-0.6
CCN(CC)CCNc1cc(C)c(C#N)c2nc3ccccc3n12	-6.7	1.2	7.3%	1.0	-23.8	1.9
CCn1c(-c2c[nH]c3ccccc23)n[nH]c1=S	-3.4	-0.3	-7.7%[38.3 µM]	-7.4	18.2	0.8
O=C(COc1ccc(-c2ccccc2)cc1)N1CCN(S(=O)(=O)Cc2ccccc2)CC1	-2.6	0.0	10.4%	-4.3	-21.3	3.6
Cn1c(Cc2cccs2)nnc1SCC(=O)Nc1ccc(F)cc1F	8.7	-0.6	-1.8%	1.2	4.5	-1.2
Cc1ncc(CO)c2c1Oc1nc(-c3ccccc3)nc(SCC(=O)N3CCOCC3)c1C2	-6.4	-0.6	0.1%	u	-3.5	3.1
Clc1ccc(-c2cnn3c(-c4ccncc4)ccnc23)cc1	-0.4	0.2	-0.6%	-6.4	3.8	-2.7
Brc1cccc(-c2cnc3n2CCCCC3)c1	-25.1	0.2	-1.1%	-18.3	-10.5	-0.5
COc1ccc(-c2nsc(NC(=O)COc3ccccc3OC)n2)cc1	x	5.6	2.0%	x	3.2	x
COc1ccc(-n2c(=O)c3sc4ccccc4c3n(CC(=O)Nc3cccc(C)c3)c2=O)cc1	x	-0.3	1.7%	x	4.6	x
CCN1CCN(c2ccc(NC(=O)c3cc(S(=O)(=O)N4CCCC4)ccc3Cl)cc2)CC1	-14.8	-0.8	0.9%	-18.2	-5.7	-3.8
Cn1c(N)c(C(=O)COC(=O)C2CC(=O)N(Cc3ccccc3)C2)c(=O)n(C)c1=O (stereo unspecified)	-6.8	-0.5	-0.3%	1.3	1.0	2.4
Cc1nc(-c2ccncc2)sc1C(=O)Nc1ccc(Cl)cc1	-1.8	0.8	-1.3%	-6.8	1.0	-3.5
Cc1cccc(NC(=O)C2CC(O)CN2C(=O)OCc2ccccc2)c1 (stereo unspecified)	-0.7	-0.1	-2.4%	-12.4	-2.4	-4.4
CCOC(=O)N1CCC(Nc2c(NCCN3CCN(c4ccccc4F)CC3)c(=O)c2=O)CC1	-3.9&6.6	0.0&0.0	1.7%&6.4%	-11.2&-5.0	-0.2&-11.0	2.5&-2.5
Cc1cc(C)cc(NC(=O)c2cnc3sc(N4CCCC4)nn3c2=O)c1	x	0.0	1.7%	x	7.8	x
Cc1cccc(NC(=O)c2cccc(S(=O)(=O)Nc3c(C)n(C)n(-c4ccccc4)c3=O)c2)c1	-1.1	2.6	0.7%	-9.8	7.5	-1.2
Cc1ccc(S(=O)(=O)CC(=O)NC(C)(C)C)cc1	5.1	0.6	9.1%[38.3 µM]	-5.4	50.4	-1.0
O=C1NCCN(CC2CCN(CCc3ccccc3)CC2)C1=O	8.8	0.6	-0.4%	-9.0	-8.2	-2.7
C=Cc1ccc(Cn2c(C)c(CNCc3ccc(SC)cc3)c(C(=O)O)c2C)cc1	x	2.1	1.0%	x	-4.5	x
N#CCC(=O)Nc1ncc(Cc2ccccc2Cl)s1	-5.1	0.3	1.4%	-9.1	-5.8	-19.4
O=C1CC(c2cccc(F)c2)SC(N(c2ccccc2)c2ccccc2)=N1 (stereo unspecified)	-3.4	3.2	-4.3%[38.3 µM]	-3.3	0.7	-2.3
CC(=O)Nc1ccc(NC(=O)CSc2nnc3ccc(-c4ccccn4)nn23)cc1	9.1	0.0	17.0%	-0.2	15.4	-3.1
CC(C)C1CC(CCNCc2ccc3c(c2)OCO3)(c2ccccc2)CCO1 (stereo unspecified)	-2.9	0.2	11.5%	-8.7	6.9	-3.2
CCC1=NN(C(=O)c2ccc(C)cc2)C(O)(c2ccc(Br)cc2)C1 (stereo unspecified)	-5.4	1.2	-0.2%	-14.5	-5.1	-5.1
COCCSc1ccccc1C(=O)Nc1nccs1	6.3	0.6	x	-22.2	3.7	-4.0
CCCCn1c(NC(=O)CC)c(C#N)c2nc3ccccc3nc21	-0.5	0.4	-0.6%	0.4	-9.2	1.4
CCCCN(CC)Cc1ccc(CNC(=S)Nc2ccccc2F)o1	0.8	0.2	2.1%	-13.5	26.8	-6.4
Cc1ccc(CNC(=O)COC(=O)c2ccc(S(=O)(=O)NCc3ccco3)cc2)cc1	-1.3	-0.3	-1.0%	1.8	4.7	-1.8
CC[C@@H]1Cc2[nH][nH]c(=O)c2[C@H](c2ccc(Cl)cc2)O1	-14.2	-0.5	3.6%	x	x	x
CCc1ccccc1NC(=O)C1CCN(C2=NS(=O)(=O)C(c3ccc(C)c(C)c3)=C2C)CC1	x	1.9	9.8%	x	-20.1	x
CN1CCc2c(c3ccccc3n2C)C1	1.2	0.3	0.2%	-45.1	-6.4	-0.9
CC(=O)N(Cc1c(C#N)c2ccccc2n1C)c1ccccc1	-0.7	0.7	-0.7%	0.1	-1.6	-4.0
Cc1c(Br)cnn1C(C)C(=O)N1CCN(c2ccccc2F)CC1 (stereo unspecified)	0.4	-0.3	0.3%	-3.1	1.7	0.5
O=C(COC(=O)Cc1ccc(Br)cc1)NCC1CCCCC1	3.4	0.4	0.5%	6.3	12.6	0.2
CCN(CC)CCNC(=O)Cn1ncc2c([nH]c3ccccc32)c1=O	x	1.1	2.3%	x	-9.2	x
Cc1cc(C)cc(-n2c(C)nc3cc(C(=O)NCc4ccccc4Cl)ccc32)c1	x	2.9	u	x	-2.3	x
O[C@H]1C[C@H](c2ccc(Cl)cc2)N(CC2CCCCC2)C[C@@H]1n1cc(-c2ccc(F)cc2)nn1	2.7	0.0	u	0.2	25.1	-9.6
Cc1cccc(C(=O)NNC(=O)CCCCC(=O)NNC(=O)c2cccc(C)c2)c1	-11.2	-1.0	-1.1%	-5.1	5.7	-3.6
O=C(NC(=O)c1cnccc1C(F)(F)F)Nc1ccccc1	-8.6	0.3	0.0%	-4.2	-1.8	1.1

From PubChem
